Assay outcomes as filed in PubChem BioAssay.
HCMV NEC inh = cytomegalovirus nuclear egress complex inhibition | AID 1918969 | 190,000 compounds, 0.15% hits | HTRF UL50-UL53 interaction, normalized percent inhibition | inhibition, % (concentration not given with the values);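 active = both replicates at 50% or more, plus weaker picks with an unusually low signal ratio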;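 note: stock transfer was 100 nL into about 20 µL; 0% = negative control wells and 100% = wells with untagged competitor protein; inactives centre near -12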
GIV Gai3 FP = inhibitors of GIV GBA-motif binding to rat Galpha-i3; P08753; Galpha-i3/FITC-GIV peptide fluorescence polarization, 90 min; stronger effect = lower value; scaled: aluminum fluoride 0%, vehicle 100%; 210,000 compounds, 0.42% hits; AID 1224905; percent of control (FP), % (concentration not given with the values);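 active = replicate mean at 85% of control or lower, very high polarization wells dropped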;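 note: wells of about 15 µL received 100 nL stock; the first replicate is given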
Target sequence (P08753 whole entry, looked up): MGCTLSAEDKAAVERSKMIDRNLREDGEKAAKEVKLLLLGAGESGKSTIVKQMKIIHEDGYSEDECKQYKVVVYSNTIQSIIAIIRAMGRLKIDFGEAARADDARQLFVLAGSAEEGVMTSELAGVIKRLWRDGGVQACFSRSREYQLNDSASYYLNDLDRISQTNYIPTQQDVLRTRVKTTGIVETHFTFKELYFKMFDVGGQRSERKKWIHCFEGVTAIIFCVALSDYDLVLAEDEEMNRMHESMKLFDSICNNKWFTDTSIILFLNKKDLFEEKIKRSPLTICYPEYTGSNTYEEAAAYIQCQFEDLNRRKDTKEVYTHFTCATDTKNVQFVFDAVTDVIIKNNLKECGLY
Sa growth 42C = inhibitors of Staphylococcus aureus growth at 42 °C. S. aureus RN4220 growth, OD600, 20 h; stronger effect = lower value. relative growth, % (test concentration not listed). 170,000 compounds, 0.53% hits. AID 720641;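 active = growth at 42 °C up to 50% and 20 or more points under that at 30 °C, or under 10% at both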;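 note: 300 nL library stock went into each well; scaled to the means of positive and negative controls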
Sa growth 42C second temp = second read-out of Sa growth 42C, no call of its own (marks repeat the call); relative growth, %; measured here: growth at 30 °C;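 optical density after 20 h as mean of two plates; 100% = untreated growth and lower means inhibition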
An asterisk follows results filed as active; nt = not tested or not shown; & = joins results of further samples.

SMILES	HCMV NEC inh	GIV Gai3 FP	Sa growth 42C	Sa growth 42C second temp
CC(/C=N/n1c(COc2ccccc2)n[nH]c1=S)=C\c1ccco1	-30	nt	70	38
CCN1C(=O)C(=Cc2ccc(N3CCOCC3)cc2OC)C(=O)N(CC)C1=S	3	nt	98	94
CCN(Cc1ccccc1)S(=O)(=O)c1c[nH]c(C(=O)OC)c1	nt	108	122	81
Cc1cccc(NC2=C(n3nnc4ccccc43)C(=O)c3ccccc3C2=O)c1	nt	102	42	25
CCOC(=O)C1CCN(S(=O)(=O)c2ccc(N3C(=O)CC4(CCCC4)C3=O)c(Cl)c2)CC1	-8	104	116	87
CC(C)(C)C(=O)C(Cc1c(F)cccc1Cl)C(=O)C(C)(C)C	-18	96	94	90
Cn1cc(C(=O)Nc2ccc3c(c2)OCCO3)c2[nH]c(=O)n(-c3ccccc3)c(=O)c21	-20	98	nt	nt
Cc1ccc(OCC(=O)Nc2ccc(Cl)c(-c3nc4ncccc4o3)c2)cc1C	nt	103	116	86
COCCn1c(C)cc(C2=NNC(=NCc3ccc(OC)cc3)SC2)c1C	-24	nt	97	100
Cc1n[nH]c(C)c1-c1ccccc1O	8	nt	99	95
CS(=O)(=O)c1nc2ccccc2n1CC(=O)N1CCCC1	-23	103	93	86
COc1ccc(Cc2nnc(C(=O)NCCCN3CCN(c4ccccc4F)CC3)o2)cc1OC	0	102	131	82
Cc1ccsc1CC1C(=O)Nc2ccccc21 (stereo not given)	-3	99	nt	nt
CCn1cnc(S(=O)(=O)N2CCC(C(=O)N3CCC(C)CC3)CC2)c1	-17	106	nt	nt
O=C(COc1ncnc2ccccc12)NCc1ccccc1	9	nt	94	94
CC(OC(=O)c1ccccc1NS(C)(=O)=O)c1nnc(-c2cccs2)o1 (stereo not given)	-13	nt	98	82
CCc1cc2ccccc2nc1Cl	-13	104	114	96
c1csc(CNC2CCCC2)c1	-14	108	106	94
COc1cccc(-n2c(SCC(=O)Nc3nnc(C)s3)nc3c([nH]c4ccccc43)c2=O)c1	nt	99	98	83
Cc1nc2ccccn2c1-c1ccnn1C(=O)c1ccc(C(F)(F)F)cc1	-34	103	112	85
O=C(c1ccccc1F)N1CCN(c2ccc(N3CCOCC3)nn2)CC1	-30	98	nt	nt
O=C(O)Cn1cc(Br)c(=O)[nH]c1=O	nt	98	94	88
O=C(Nc1noc2ccccc12)c1cc(Br)ccc1Cl	-21	97	nt	nt
CCCOc1ccc2oc(=O)c3c(c2c1)CCCN3C(=O)CN(C)c1ccc(C)cc1	nt	99	120	85
CCOC(=O)c1cnc(Nc2nc3ccccc3o2)nc1CSc1nnc(C)s1	1	102	110	81
CCN1C(N)=C(C#N)C2(CCNCC2)c2nc(C)oc21	6	nt	91	114
CCCNC(=O)CC(c1cccs1)N1Cc2ccccc2C1=O (stereo not given)	-18	106	100	87
CNC(=O)c1ccc(NC(=O)COc2ccc(-c3nn(C)c(=O)c4ccccc34)cc2)cc1	-123	99	92	79
O=C(O)C1C2C=CC(C2)C1C(=O)Nc1nccs1 (stereo not given)	2	106	105	110
COc1ccc(-c2onc(C)c2C)cc1S(=O)(=O)NCC1CCN(Cc2cccc(F)c2)CC1	nt	98	97	85
COC(=O)c1c(C)oc(C)c1S(=O)(=O)NC1CCCCCCCCCCC1	4	99	95	87
Cc1cnc(NC(=O)c2c(C)noc2C)s1	12	nt	124	91
Cc1nn(-c2ccc(N3CCCC3)nn2)c(C)c1CCC(=O)N1CCN(c2ccccn2)CC1	-63	100	nt	nt
C/C(=N\NC(=S)NCC1CCCO1)c1ccc(OCC(=O)N(C)C)cc1 (stereo not given)	-42	nt	83	86
CCc1ccc(NC(=O)C(C)OC(=O)c2cccnc2Cl)cc1 (stereo not given)	-12	nt	106	90
O=C(O)CSC(=S)c1ccccc1	-123	104	107	89
COc1c(C)cnc(CO)c1C	-16	101	99	87
CCOc1ccc(CNC(=O)C(C)n2ncn3cccc3c2=O)cc1 (stereo not given)	8	105	98	97
CCOC(=O)N1CCN(C(=O)c2sc3ncnc(N4CCN(c5ccccn5)CC4)c3c2C)CC1	4	104	nt	nt
COc1ccc2c(c1)cc1c(=O)n(CC(=O)NCCCc3ccccc3)nc(C)n12	-20	98	110	89

Of the compounds above, 2 contain bromine.
SMILES	HCMV NEC inh	GIV Gai3 FP	Sa growth 42C	Sa growth 42C second temp
O=C(O)Cn1cc(Br)c(=O)[nH]c1=O	nt	98	94	88
O=C(Nc1noc2ccccc12)c1cc(Br)ccc1Cl	-21	97	nt	nt

Continued.
SMILES	HCMV NEC inh	GIV Gai3 FP	Sa growth 42C	Sa growth 42C second temp
COc1ccc(-c2onc(C)c2C)cc1S(=O)(=O)N(C)Cc1ccco1	nt	105	112	79
Brc1cccc(-c2nnc3sc(-c4ccncc4)nn23)c1	-25	103	nt	nt
CC(C)(C)C(=O)/C(C#N)=C/c1ccc2c(c1)OCCO2	-19	nt	96	97
O=C(Nc1ccc2c(c1)OCO2)NN1CCOCC1	-6	102	111	101
CCc1ccc(NC(=O)C2c3ccccc3C(=O)N(C)C2c2cccs2)cc1 (stereo not given)	nt	105	118	94
N#C/C(=C\c1ccc(-c2ccc(F)cc2F)o1)c1nc2ccccc2[nH]1	-50	-6.1*	91	77
Nc1cc[n+](CC(O)CO)cc1 (stereo not given)	-21	106	96	96
O=C(c1ccc2c(c1)N(Cc1ccccc1)C(=O)c1ccccc1S2=O)N1CCCC1 (stereo not given)	-4	103	92	90
Cc1cccc(CN2CCC(CNC(=O)c3c(C)oc4ncnc(N5CCCCC5)c34)CC2)c1	nt	108	123	97
O=C(c1cn[nH]c1C1CCNCC1)N1CCC(c2ccccc2)C1 (stereo not given)	-24	99	103	90
Oc1ccccc1-c1cc(-c2ccccc2)n[nH]1	-6	100	80	46
COC1=CC(=O)C(C)=CC1=O	-1	99	2	1
CCS(=O)(=O)N1CCCC(C(=O)NCCc2ccccc2)C1 (stereo not given)	nt	102	110	83
COc1ccc(C2=NN(C(=O)c3cc([N+](=O)[O-])cc([N+](=O)[O-])c3)C(c3ccc(Br)cc3)C2)cc1 (stereo not given)	-23	101	nt	nt
COc1ccc(C(=O)/C=C/c2cn(CC(O)CN3CCc4ccccc43)c3ccccc23)cc1 (stereo not given)	-1	109	144	74
COc1ccc(N2CCN(c3ccc(NC(=O)C4CCCCC4)cc3C#N)CC2)cc1	-3	106	94	97
COc1ccc(S(=O)(=O)Nc2ccccc2C(=O)NC(C)C)cc1OC	-5	nt	103	93
COCCCN1C(=O)/C(=C/c2c(N3CCN(Cc4ccccc4)CC3)nc3c(C)cccn3c2=O)SC1=S	-10	126	nt	nt
O=C(Cn1cnc(S(=O)(=O)N2CCCCC2)c1)NCCC1=CCCCC1	-28	101	nt	nt
CC(C)(C)SC(=O)c1cccnc1SCCS(=O)(=O)c1ccccc1	-7	101	102	89
CCC(Sc1nc2ncccc2[nH]1)C(=O)Nc1cc(OC)ccc1OC (stereo not given)	-12	104	nt	nt
COc1ccccc1N1CCN(C(=O)Cn2c(=O)nc(-c3ccccc3)c3cc(Cl)ccc32)CC1	nt	102	97	89
Cc1ccc2[nH]cc(CCN3CC(C(=O)Nc4cccc(F)c4)CC3=O)c2c1 (stereo not given)	-10	104	nt	nt
COc1ccccc1-c1cc2ccccc2oc1=O	-46	nt	83	82
CCOC(=O)c1c(C)[nH]c(C)c1S(=O)(=O)N(C)CC(=O)Nc1cccc(Cl)c1C	nt	100	97	82
CCCOc1ccc(CNC(=O)c2[nH]c3cc(OC)ccc3c2Sc2ccccc2)cc1	-14	105	126	90
CC(OC(=O)c1cccc(N(C)C)c1)C(=O)N1CCc2ccccc21 (stereo not given)	-11	nt	97	98
O=C(O)CSc1nc2ccccc2o1	nt	95	94	77
COc1ccccc1CNC(=O)C(=O)NCC(c1cccs1)S(=O)(=O)c1cccs1 (stereo not given)	nt	97	127	95
COc1ccc(C2CC(=O)C3=C(C2)Nc2ccccc2NC3c2ccc3c(c2)OCO3)cc1OC (stereo not given)	-24	99	nt	nt
COc1cccc(C(=O)OC(C)C(=O)Nc2ccc(N(C)C)cc2)c1 (stereo not given)	6	nt	89	104
CCOC(=O)C1=C(C)N=c2s/c(=C\c3cc(Br)c(OC)c(OC)c3)c(=O)n2C1c1ccc2c(c1)OCO2 (stereo not given)	-9	101	nt	nt
CCN(C(=O)c1c(-c2c(Cl)cccc2Cl)noc1C)c1ccccc1C	-34	100	81	69
Cc1cc(C)n(-c2nc3nonc3nc2-n2nc(C)cc2C)n1	-40	97	nt	nt
CC1Oc2ccccc2N(CC(=O)Nc2ccccc2F)C1=O (stereo not given)	13	104	93	95
Cc1ccc(-n2c(CCC(=O)O)ccc2-c2cccs2)cc1Cl	13	111	92	73
Cc1nc2ccccc2c2c1C(=O)N(c1ccccc1C(=O)OCc1ccc(Cl)cc1)C2=O	13	99	nt	nt
O=C(Nc1ccc(Cl)cc1)N1CCC(C(c2ccccc2)c2ccccc2)CC1	-20	102	83	76
O=C(Nc1sc2c(c1Sc1nnnn1-c1ccccc1)CCCC2)c1ccccc1	-1	nt	105	100
CCN(CC)S(=O)(=O)c1ccc(C(=O)C2=C3SC=C(c4ccc(OC)cc4)N3CC2)cc1	-2	nt	87	96
c1coc(-c2cc(C3CCNCC3)[nH]n2)c1	nt	104	95	88
CC(C)C(NC(=O)OCc1ccccc1)C(=O)Oc1ccc2c(=O)c(Oc3ccccc3)coc2c1 (stereo not given)	1	nt	111	81
CC(C)(C)C1=CC(O)(c2ccccc2)C=C(C(C)(C)C)C1=O	-3	103	104	107
CC(Oc1cccc2c1CCN(C)C2=O)c1ccccc1 (stereo not given)	7	103	97	95
CN=C1NC(=NC)c2ccccc21	-60	nt	117	85
C=C(C)CSC1=C(C#N)C(C)(C)C(C#N)C(=O)N1 (stereo not given)	-2	nt	97	84
Cn1c(SCCN2CCCC2)nnc1C1CCCN1C(=O)NC1CCCCC1 (stereo not given)	24	101	84	100
O=C(CNC(=O)c1ccc(Cl)cc1)OCc1cc(=O)n2nc(C3CC3)sc2n1	nt	107	93	80
O=C(CCN1C(=O)/C(=C\c2cccc(Br)c2)SC1=S)Nc1cccc(C(=O)O)c1	-17	94	nt	nt
CCn1c2ccccc2c2cc(NC(=O)Oc3ccccc3)ccc21	nt	103	82	81
COc1cc(Cc2nnc(C(=O)NC3CCCCCC3)o2)cc(OC)c1OC	nt	101	93	89
Cc1ccc(CNC(=O)c2c3c(nc4ccccc24)C(=O)N(C2CCCCC2)C3)cc1	nt	103	76	89
O=C1NC(=O)N(c2ccc3c(c2)OCO3)C(=O)/C1=C/c1cc(Br)c(N2CCOCC2)o1	-8	113	nt	nt
Cc1ccc(NC2CCCCC2NS(=O)(=O)c2ccccc2)cc1 (stereo not given)	nt	107	85	64
Cc1cc(=O)n2[nH]c(NC(=O)c3cccs3)nc2n1	-3	nt	80	81
CC(=O)Nc1nc2ccccc2[nH]1	-7	100	nt	nt
CC1CCC2(CC1)Nc1ccccc1C(=O)N2CCc1ccccc1 (stereo not given)	nt	103	83	90
Cc1ccc2oc(-c3ccccc3)cc(=NCCO)c2c1	nt	97	103	72
Cc1ccc(SCC(=N)N)cc1	13	106	112	101
Cc1c(C(=O)NCc2ccccc2Cl)sc2nc[nH]c(=O)c12	nt	100	123	88

Full records, looked up by structure:
CC(C)C(NC(=O)OCc1ccccc1)C(=O)Oc1ccc2c(=O)c(Oc3ccccc3)coc2c1 (stereo not given) in the list: HCMV NEC inh = 1; GIV Gai3 FP = nt; Sa growth 42C = 111; Sa growth 42C second temp = 81
Cc1cc(=O)n2[nH]c(NC(=O)c3cccs3)nc2n1 in the list: HCMV NEC inh = -3; GIV Gai3 FP = nt; Sa growth 42C = 80; Sa growth 42C second temp = 81

Looked up one by one from the entries so far, two records:
SMILES	HCMV NEC inh	GIV Gai3 FP	Sa growth 42C	Sa growth 42C second temp
Cn1c(SCCN2CCCC2)nnc1C1CCCN1C(=O)NC1CCCCC1 (stereo not given)	24	101	84	100
CC(C)C(NC(=O)OCc1ccccc1)C(=O)Oc1ccc2c(=O)c(Oc3ccccc3)coc2c1 (stereo not given)	1	nt	111	81

Next section:
SMILES	HCMV NEC inh	GIV Gai3 FP	Sa growth 42C	Sa growth 42C second temp
COc1ccccc1CNc1nc2c(S(=O)(=O)c3ccccc3)nnn2c2ccccc12	-3	100	nt	nt
CC(=O)Nc1sc2c(c(=O)c1O)CCCC2	-20	158	105	91
COc1ccc(CNc2nccs2)c(O)c1	-12	98	113	83
CC(C)C(C)(C#N)NC(=O)CSc1nncn1C (stereo not given)	11	nt	99	99
CCN(CC)c1ccc(/C=N/n2c(C)cc(C)cc2=O)cc1	-95	107	104	77
Cc1ccc(C(=O)c2c(N)c(C(=O)Nc3ccccc3Cl)c3ccccn23)cc1	3&-12	101&104	100	99
CC1CN=C(N(Cc2ccccc2Cl)C(=O)Nc2cccc(Cl)c2)S1 (stereo not given)	-5	nt	74	84
O=C(OCc1cnc(-c2ccccc2)o1)c1ccco1	-2	103	89	83
COc1ccc(C(=O)c2sc(Nc3cc(Cl)ccc3C)nc2N)cc1OC	nt	102	52	66
CN(C)c1cc(N)c2ccccc2n1	8	95	86	112
O=C(Nc1ccc2c(c1)nc1n2CCCCC1)c1ccc(Br)o1	-38	nt	136	82
Cc1onc(-c2ccccc2Cl)c1C(=O)N(Cc1nc(-c2ccccc2)no1)C(C)C	-2	107	116	102
